Screens (PubChem)
Mtb H37Rv = M. tuberculosis H37Rv growth inhibitors, H37Rv strain (AID 1626). M. tuberculosis H37Rv growth inhibition; higher % means a stronger effect. inhibition, % at 10 µM; hits with a dose series show IC50 in µM. 0.95% of 220,000 active;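 active means confirmed in a dose series; inconclusive means inhibition above 80% but not taken into the dose series; inactive means below 80% or under 30% at every dose of the series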;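 further: bacteria incubated seven days before Alamar blue readout; 0% = bacteria only wells and 100% = bacteria with antibiotic wells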
Arbovirus inh = arbovirus infection inhibition; arbovirus infection cell-based antiviral screen; inhibition, % at 10 µM; 0.37% of 200,000 active;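 active means inhibition from about 30%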;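 further: bluetongue infection of BSR cells; cell survival read as ATP light after 72 h; 0% = infected wells without compound and 100% = uninfected wells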
YopH inh = inhibitors of Yersinia enterocolitica YopH tyrosine phosphatase | fluorescence Ex485/Em525 | inhibition, %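 (about 10 µM by stock and volumes)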 | 0.16% of 140,000 active | AID 898;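 active means inhibition of 50% or more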;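 further: controls were vehicle for no effect and minimum signal wells for full effect; inactives centre near -20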
RecA splice inh = Mtb RecA intein splicing inhibition; P9WHJ3; cell-free RecA intein splicing, fluorescence; inhibition, %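 (about 9 µM by stock and volumes)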; 0.75% of 290,000 active; AID 2221; in the data active means inhibition above about 30%; inconclusive means no clear call, values can overlap the other calls;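 further: 0% = vehicle wells and 100% = reference inhibitor control wells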
Target sequence (P9WHJ3 whole entry, looked up, canonical isoform): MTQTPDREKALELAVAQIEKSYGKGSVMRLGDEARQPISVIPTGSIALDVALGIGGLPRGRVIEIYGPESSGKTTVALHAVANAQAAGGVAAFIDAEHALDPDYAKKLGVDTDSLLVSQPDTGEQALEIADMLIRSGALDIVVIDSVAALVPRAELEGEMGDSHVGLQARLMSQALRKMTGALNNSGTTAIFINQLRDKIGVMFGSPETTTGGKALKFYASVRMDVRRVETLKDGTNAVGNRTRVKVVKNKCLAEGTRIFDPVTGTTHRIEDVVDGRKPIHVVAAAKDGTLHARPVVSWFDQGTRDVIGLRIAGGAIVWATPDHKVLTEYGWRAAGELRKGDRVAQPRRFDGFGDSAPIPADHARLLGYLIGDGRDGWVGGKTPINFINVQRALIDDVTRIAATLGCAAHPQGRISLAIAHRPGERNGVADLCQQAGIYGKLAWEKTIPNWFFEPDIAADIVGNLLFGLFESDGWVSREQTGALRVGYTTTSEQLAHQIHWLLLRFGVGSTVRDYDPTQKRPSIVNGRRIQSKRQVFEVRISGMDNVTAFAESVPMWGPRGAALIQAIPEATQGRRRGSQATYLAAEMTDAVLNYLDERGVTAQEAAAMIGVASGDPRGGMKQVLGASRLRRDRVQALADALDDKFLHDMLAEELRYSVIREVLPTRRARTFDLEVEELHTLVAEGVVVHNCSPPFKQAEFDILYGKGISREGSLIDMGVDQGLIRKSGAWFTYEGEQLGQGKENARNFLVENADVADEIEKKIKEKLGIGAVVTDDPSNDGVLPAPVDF
Mtb bLac sens = beta-lactam sensitization of Mtb H37Rv; inhibition, % at 25 µM; M. tuberculosis H37Rv growth with meropenem, percent inhibition; hits of this screen are not shown here; AID 434955; 0.27% of 330,000 active;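 active means about 74% or more and at least 40 points above the plate without the antibiotic, then above 30% in a dose series; inconclusive means first-round hits that could not be retested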;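 further: growth measured after seven days incubation then overnight dye step; 0% = bacteria only wells and 100% = bacteria with antibiotic; twin plates without the antibiotic show which effects depend on it; some results filed as inactive read as strong as hits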
Arbovirus inh repeat = further read-out of Arbovirus inh, marked with its call; inhibition, %; measured here: 10K subset replicate screen; many hits read low in the repeat;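 first of two repeat runs on a subset; 0% = infected and 100% = uninfected wells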
* marks the source's active call; other numbers are inactive results; ? = inconclusive; . = not tested or not shown.

SMILES | Mtb H37Rv | Arbovirus inh | YopH inh | RecA splice inh | Mtb bLac sens | others
COC(=O)/C(=N/Nc1ccccc1C)Sc1nnc(C(O)c2ccccc2)n1-c1ccccc1 (stereo not given) | -11% | 1 | -28 | -2.3 | -1
CN(C)c1cccc(NC(=O)Cc2ccc(F)cc2)c1 | 9% | -2 | -20 | -0.5 | 8 | Arbovirus inh repeat=-5
Fc1ccc(NC(=S)N2CCSC2c2cccs2)cc1 (stereo not given) | 3% | 25 | . | -1.6 | -10
Nc1nc2c(c3c1c(=O)oc1ccccc13)CCCCC2 | -11% | 4 | -32 | -6.3 | 3 | Arbovirus inh repeat=2
CCOC(=O)/C(C)=N/NC(=O)c1ccc([N+](=O)[O-])cc1 | 1% | 0 | . | -2.2 | 4
O=C(COc1ccc(-c2ccccc2)cc1)NNC(=O)NC1CCCCC1 | -5% | -8 | . | 6.2 | 1
O=C(CN1CCN(c2ccc(F)cc2)CC1)Nc1cccnc1Cl | 6% | 1 | . | . | 3
COc1cccc(CN2CC(C(=O)NCc3ncc(C)[nH]3)CCC2=O)c1 (stereo not given) | . | . | . | 1.5 | 3
Cc1ccc(OCCCSc2ncccn2)cc1C | -6% | -3 | 39 | 0.5 | -4
COc1cccc(OC)c1C(=O)Nc1ccc2c(c1)n(C)c(=O)n2C | . | . | . | -2.8 | -8
Cc1ccc(-n2ncc(-c3nnc(SCC(=O)NC4CCCC4)o3)c2N)cc1C | . | -1 | -10 | -2.3 | 76
CCOc1ccc(C(=O)OCC(=O)NCCCc2ccccc2)cc1 | . | . | . | -0.6 | 4

Ordered by SMILES length (rising): part of the list above
SMILES | Mtb H37Rv | Arbovirus inh | YopH inh | RecA splice inh | Mtb bLac sens | others
Cc1ccc(OCCCSc2ncccn2)cc1C | -6% | -3 | 39 | 0.5 | -4
Fc1ccc(NC(=S)N2CCSC2c2cccs2)cc1 (stereo not given) | 3% | 25 | . | -1.6 | -10
CN(C)c1cccc(NC(=O)Cc2ccc(F)cc2)c1 | 9% | -2 | -20 | -0.5 | 8 | Arbovirus inh repeat=-5
Nc1nc2c(c3c1c(=O)oc1ccccc13)CCCCC2 | -11% | 4 | -32 | -6.3 | 3 | Arbovirus inh repeat=2
O=C(COc1ccc(-c2ccccc2)cc1)NNC(=O)NC1CCCCC1 | -5% | -8 | . | 6.2 | 1
COc1cccc(OC)c1C(=O)Nc1ccc2c(c1)n(C)c(=O)n2C | . | . | . | -2.8 | -8
Cc1ccc(-n2ncc(-c3nnc(SCC(=O)NC4CCCC4)o3)c2N)cc1C | . | -1 | -10 | -2.3 | 76

(cont.)
SMILES | Mtb H37Rv | Arbovirus inh | YopH inh | RecA splice inh | Mtb bLac sens | others
COc1ccccc1N1CCN(C(=O)CCCNC(=O)Cn2cnc3sc(C)c(C)c3c2=O)CC1 | . | . | . | 1.1 | -2
O=C(CCN1CCN(CC(=O)Nc2ccccc2F)CC1)Nc1ccccc1F | 7% | -4 | -13 | 6.2 | -1
CC(C)[C@H](NC(=O)[C@@H]1CSC2c3ccccc3C(=O)N21)C(=O)NCc1ccncc1 (stereo not given in full) | . | . | . | 0.8 | 0
Cc1nn(CC(=O)NCc2ccccn2)c(C)c1[N+](=O)[O-] | -6% | 0 | . | -1.8 | 4
Cc1cc(OC2CCCCC2)nc(-c2ccccc2O)n1 | -9% | 15 | -29 | 11 | 12 | Arbovirus inh repeat=0
O=C(C1CCCN(S(=O)(=O)c2ccc(Br)cc2)C1)N1CCN(Cc2ccccc2)CC1 (stereo not given) | . | . | . | 2.5 | 46
CCOc1ccc(NC2=C(Cl)C(=O)N(C3CCCCC3)C2=O)cc1 | 14% | 3 | -20 | 0.7 | -4
COc1ccc(CC(=O)NC(C)c2nnc(SCC(=O)Nc3cc(C)ccc3OC)n2C)cc1 (stereo not given) | -7% | 4 | . | 3.8 | 3
O=C(NC1CCS(=O)(=O)C1)/C(=C/c1ccc(Cl)cc1)NC(=O)c1ccccc1 (stereo not given) | -4% | -1 | -8 | -1.2 | -1
COc1ccc(CCNS(=O)(=O)c2ccc3c(c2)CC(C)N3C(C)=O)cc1OC (stereo not given) | . | 1 | -17 | 1.3 | -4
O=C1[C@@H]2C(c3ccccc3Cl)=NO[C@@H]2C(=O)N1Cc1ccccc1 | -3% | 15 | -12 | 0.6 | 4
CC1CCCCN1Cc1nc2ccccc2c(=O)[nH]1 (stereo not given) | -4% | 9 | -11 | 0.4 | -2
CCNC(=S)N1CCN(c2ncccn2)CC1 | 8% | -1 | -4 | -2.6 | -6
Cc1ccc(NC(=O)COC(=O)CCc2c[nH]c(=O)[nH]2)cc1 | 3% | 1 | -27 | -5.1 | 2
Cc1ccc(NC2=NC(c3ccc(C)cc3)n3c(nc(C)cc3=O)N2)cc1 (stereo not given) | -6% | 0 | -29 | 2.4 | 2
O=C(Nn1cnnc1)C1CCCN1S(=O)(=O)c1ccc(F)cc1 (stereo not given) | 0% | 5 | -78 | -4.0 | 1
CC(C)(C)NS(=O)(=O)c1cccc(S(=O)(=O)c2cccc(S(=O)(=O)NC(C)(C)C)c2)c1 | . | 7 | -51 | . | -4
COc1ccc(NC(=O)N2c3ccccc3C(C)=CC2(C)C)cc1 | 69% | -1 | . | 4.5 | 4
O=c1c2cc(Cl)ccc2nc(-c2ccccc2)n1O | -11% | 1 | . | 1.5 | 36
Cc1ccc(NC(=O)C2CC2C)cc1S(=O)(=O)N1CCOCC1 (stereo not given) | . | . | . | -3.7 | -7
CCCn1c(=S)[nH]c2cc(C(=O)N3CCN(C4CCCCC4)CC3)ccc2c1=O | . | . | . | -1.6 | 7
COC(=O)CNc1nc(-c2ccncc2)nc2ccccc12 | . | -5 | 13 | 1.4 | -2
CCC(CC)C(=O)NCc1ccc2c(c1)cc(C)n2C | 5% | -1 | -30 | 31* | 8
N#CCCN(/N=C/c1cccnc1)C1=NS(=O)(=O)c2ccccc21 | -7% | 0 | . | 1.8 | 1
COC(=O)c1cn(-c2ccccc2)c(C)c1C(=O)OC | -5% | -6 | -27 | -0.6 | 6
Cc1cccc(C(=O)NC2CCN(CC(=O)NCc3cccs3)CC2)c1 | -2% | -5 | . | 0.6 | 0
Clc1cccc(N2CCNCC2)c1 | . | . | . | -0.2 | -1
O=C(Nc1ccccc1N1CCCCC1)c1ccc(Cl)cc1 | . | . | . | 13 | 95
CC(C)N(CC(N)=O)C(=O)Cc1coc2cc3c(cc12)CCC3 | 15% | 9 | -24 | 0.4 | 7
O=C(NC1CCSc2ccccc21)c1cccc(OC(F)F)c1 (stereo not given) | . | . | . | 5.4 | 12
O=C(O)c1ccc(Oc2cc(Oc3ccc(C(=O)O)cc3)cc([N+](=O)[O-])c2)cc1 | . | . | . | -1.7 | -4
NC(=O)N/N=C/c1ccc(-c2ccc([N+](=O)[O-])cc2)o1 | 63% | . | . | -2.3 | 73
O=C(c1cc(-c2cccs2)on1)N1CCN(c2ccccc2)CC1 | . | -32 | -8 | . | 3
CCOC(=O)c1c(C)oc2cc(Cl)c(O)c(CN(C)C)c12 | 2% | . | . | -1.7 | -6
Cc1cc(C(=O)Nc2sc3c(c2C#N)CCC(C(C)(C)C)C3)no1 (stereo not given) | 6% | -15 | -33 | -0.3 | -2
CC(C)c1ccccc1NC(=S)NC1CCCCC1 | 0% | 7 | . | 3.1 | -4
COCc1[nH]nc2c1C(c1c(F)cccc1Cl)C(C#N)=C(N)O2 (stereo not given) | 10% | -11 | -47 | 6.5 | 1
Cn1c(SCc2n[nH]c(=S)o2)nnc1-c1ccccc1 | 6% | -9 | -29 | -1.8 | -3
Cn1c(=O)n(Cc2ccc(Cl)cc2)c(=O)c2c1nc1n2CCN1Cc1ccco1 | -4% | -1 | -22 | 1.2 | 4
Cc1ccccc1CN(CC1CCC(C(=O)O)CC1)C(=S)Nc1ccccc1F (stereo not given) | 0% | 8 | . | 1.5 | 0
Cc1cc(C)c(S(=O)(=O)/N=C2\C=C(Nc3ccc(C(=O)O)cc3)C(=O)c3ccccc32)c(C)c1 | . | . | . | 96* | 10
COC(=O)CC1C(=O)NCCN1C(=O)Nc1cccc(Cl)c1 (stereo not given) | -4% | 1 | . | . | 3
CCOC(=O)c1cccnc1SCC(=O)NCc1ccccc1 | -1% | 2 | -16 | 4.6 | 0
O=C1CCC(=O)N1c1nc2n(n1)C(c1ccccc1)C=C(c1ccc(Br)cc1)N2 (stereo not given) | -4% | 5 | -15 | -67 | 7
NC(=O)C1CCN(C(=O)c2ccc3ccccc3c2)CC1 | . | . | . | -0.1 | 0
CCOC(=O)c1ccccc1NS(=O)(=O)c1ccccc1 | 5% | 2 | -36 | -2.6 | 7
Cc1ccc(S(=O)(=O)N2CCCCC2)cc1C(=O)N(C)CC(=O)Nc1ccc(Cl)c(C(F)(F)F)c1 | . | . | . | 3.9 | 36
N/C(=N\OC(=O)/C=C/c1ccccc1)c1ccc(Br)cc1 | 13% | 4 | . | -1.5 | 28
CCOC(=O)CCSc1nc(C)c2cc(C)ccc2n1 | 5% | -7 | -22 | 0.7 | 7
COc1cc(/C=N/NC(=O)c2cc(C3CC3)[nH]n2)cc(OC)c1OC | . | . | . | -0.7 | 4
COc1ccc(/C=N\NC(=O)c2ccccc2F)cc1COc1ccc(F)cc1F | . | . | . | -2.1 | 84
COc1cc(OC)cc(-c2nnc(N(C)C(=O)c3ccncc3)s2)c1 | 5% | 15 | . | 2.3 | 0
CC1(c2nnc(-c3ccccc3)o2)CC(c2ccccc2)=NO1 (stereo not given) | -9% | . | . | 0.3 | 5
O=c1c2c(C(F)(F)F)cc(C(F)(F)F)nc2[nH]n1-c1ccccc1 | 2% | 27 | -60 | -0.5 | .
CC(=O)N1c2ccc(S(=O)(=O)N3CCCC(C(=O)NCc4ccccc4)C3)cc2CC1C (stereo not given) | . | . | . | 1.2 | 7
CCN1CCN(C(=O)C2CCN(Cc3cc(Cl)ccc3O)CC2)CC1 | 7% | 3 | 8 | -0.6 | -5
FC(F)(F)C1=CC(c2ccccc2)=NCCN1 | -2% | 5 | -13 | 0.3 | -6
CCS(=O)(=O)c1ccc2oc(SCC(=O)N3c4ccccc4CC3C)nc2c1 (stereo not given) | 4% | -3 | -34 | 0.5 | -22
COc1ccc2oc(C(=O)OCC(=O)Nc3cc(S(=O)(=O)N4CCOCC4)ccc3OC)c(C)c2c1 | . | . | . | 2.9 | -6
Cc1cccc(C)c1NC(=S)N1CCCN(C)CC1 | -1% | -1 | . | -0.9 | 0
Continued.
SMILES | Mtb H37Rv | Arbovirus inh | YopH inh | RecA splice inh | Mtb bLac sens | others
Cc1ccccc1C(=O)Nc1ccc(S(=O)(=O)N2CC(C)OC(C)C2)cc1 (stereo not given) | . | . | . | 2.7 | 5
CN(C)C(=O)c1cc(C(=O)c2c(F)cccc2F)c[nH]1 | . | . | . | -1.0 | 2
CC(=O)Nc1ccc(S(=O)(=O)N2CCNC(=O)CC2)cc1 | -2% | 7 | -18 | -9.3 | ?
CCCc1cc(=O)[nH]c(SCC(=O)c2cc(C)n(C)c2C)n1 | -6% | 1 | -28 | 0.0 | -5
CCOC(=O)/C=C/c1ccc(C(F)(F)F)cc1S(=O)(=O)NC(C)(C)C | -3% | . | . | 2.7 | 39
CCOc1ccccc1N1CCN(C(=O)CCCc2nc3ccccc3s2)CC1 | 7% | 26 | 20 | 2.1 | 12
CN(CC(=O)NC1CC1)S(=O)(=O)c1ccc(F)cc1 | -5% | 0 | . | -0.4 | 10
CN(Cc1ccccc1)C(=O)c1ccc([N+](=O)[O-])o1 | -3% | -2 | -6 | . | 100
Cc1cc(Cl)c(OCCCn2ccnc2)c(Br)c1 | -2% | -12 | -13 | 2.9 | 8
CCCNC1=CC(=O)CC(C)(C)C1 | -2% | 3 | -29 | -1.2 | 5
CCCCCCn1c(CN2CCCC(C)C2)nc2c1c(=O)n(C)c(=O)n2C (stereo not given) | 0% | -12 | -17 | -3.4 | 4
CC1CN(CCS(=O)(=O)c2cc(Cl)ccc2Cl)CC(C)O1 (stereo not given) | . | . | . | 0.5 | 8
NC(=O)Oc1cccc(OC(N)=O)c1 | -7% | . | . | -2.0 | -1
CS(=O)(=O)Nc1ccccc1C(=O)Nc1cccc(Cl)c1 | -10% | 22 | -12 | -0.4 | -1
O=C1c2cnc3nc(SCc4ccc(Cl)cc4)nn3c2CC2c3ccccc3CCN12 (stereo not given) | -2% | -7 | -46 | -2.9 | 7
CN(C)CCCN(C(=O)c1ccc(Cl)s1)c1nc2cc3c(cc2s1)OCO3 | . | . | . | 1.7 | 8

Not all compounds are listed; the hit share may differ from the screen's.
